MT1-MMP promoter: inhibitors of MT1-MMP promoter transcription, cell-based, luciferase reporter, luminescence (AID 618). 0.62% of 87,000 active. MT1-MMP promoter luciferase reporter cells, luminescence. calls from a first round at 10 µM; hits with a dose series show EC50 in µM;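 active = over half of the reporter light lost at 10 µM or EC50 under 50 µM; inactive = the rest and hits that failed the dose series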;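 also: actives suppress MT1-MMP promoter-driven transcription so potencies describe inhibitors; HT1080 fibrosarcoma cells; overnight exposure; toxic or luciferase-blocking compounds were not removed from the actives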
Hsc70: Hsc70 inhibitors, probe displacement, primary screen, biochemical, fluorescence polarization (AID 568). one-dose displacement, % at 20 µM; IC50 in µM for titrated hits. Heat shock cognate 71 kDa protein (Homo sapiens). Hsc70 fluorescence polarization, probe displacement; higher % means a stronger effect; strong numbers were not always called active. 83,000 tested, under 10 active;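 active = displacement above 50% without optical interference and an IC50 on retest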;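 also: ATPase domain with a fluorescein-tagged ATP probe; 0% = vehicle and 100% = excess ADP; read after one hour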
WNV protease inh: inhibitors of WNV NS2B-NS3 protease, primary screen, biochemical, fluorogenic substrate; Genome polyprotein (West Nile virus), P06935; fluorogenic substrate Ex360/Em465; hits give low values; z-score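 (tested at a level between 10 and 100 µM)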; 0.18% of 65,000 active; AID 577, 2007;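 active = z-score at -3 or under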;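 also: score is relative to mean and spread of the compound wells of a plate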
Target sequence (P06935 1371-1501 limits assumed): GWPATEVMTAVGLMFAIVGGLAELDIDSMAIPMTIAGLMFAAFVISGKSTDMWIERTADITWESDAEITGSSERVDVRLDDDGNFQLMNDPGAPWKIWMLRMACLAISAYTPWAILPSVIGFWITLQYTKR
Target sequence (P06935 1502-1679 limits assumed): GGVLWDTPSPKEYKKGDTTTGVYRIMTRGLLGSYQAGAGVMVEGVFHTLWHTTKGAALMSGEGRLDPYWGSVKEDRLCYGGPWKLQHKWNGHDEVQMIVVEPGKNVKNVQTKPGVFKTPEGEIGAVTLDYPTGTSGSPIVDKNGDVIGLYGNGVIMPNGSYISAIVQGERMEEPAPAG
An asterisk follows results filed as active; i = inactive; · = no result given. Some of the compounds tested; the hit share may differ from the screen's.

SMILES	MT1-MMP promoter	Hsc70	WNV protease inh
O=C(NCc1nc2ccccc2[nH]1)c1cc2ccccc2oc1=O	i	3.2%	-1.04
Cc1ccc(CN2C3=NC(=O)CN3c3ccccc32)cc1	i	-8.1%	-0.36
COC(=O)c1ccc(C)c(NC(=O)CN2C(=O)c3ccccc3S2(=O)=O)c1	i	5.2%	-1.11
Cc1cccc(N2CC(c3nc4ccccc4n3C)CC2=O)c1C (stereo not given)	i	0.4%	-0.93
CC(=O)Nc1ccc(S(=O)(=O)n2cnc(C)c2)cc1	i	-4.0%	1.24
Cn1cccc1C1Nc2ccccc2NC2=C1C(=O)CC(C)(C)C2 (stereo not given)	i	-2.2%	·
COCC(=O)n1nc(-c2ccccc2)nc1NCc1ccc(F)cc1	i	-8.4%	0.09
Cc1ccc2nc(C3CCN(C(=O)NCc4ccccc4)CC3)[nH]c2c1	i	5.0%	-0.83
Cc1cccc(N(C(=O)c2ccc(CN3CCOCC3)o2)C(C(=O)NC(C)(C)C)c2ccc(F)cc2)c1 (stereo not given)	i	-0.7%	·
CCOC(=O)CSc1nc2c(c(=O)n(Cc3ccccc3Cl)c(=O)n2C)n1C	i	-0.1%	0.27
Cc1c(SCCO)c(=O)[nH]c2cc3c(cc12)OCO3	i	-1.3%	·
CCOc1cc(-c2nn3cnnc3s2)cc(OCC)c1OCC	i	0.2%	0.26
CCOC(=O)c1c(NC(=O)CSc2nnc(-c3ccco3)o2)sc(C(C)=O)c1C	i	-17.9%	0.36
Cc1ccc(-c2cc(-c3ccccc3Cl)c(C#N)c(N)n2)o1	i	-8.5%	-0.53
CCc1cc2c(=O)c(-c3nc4ccccc4[nH]3)coc2c(CN2CCC(C)CC2)c1O	i	-6.6%	0.82
CSC1=Nc2sc3c(c2C2=NCCN12)CC(C)(C)OC3	i	0.5%	0.34
CCN(CC)CCOc1cc2c(nn1)Oc1ccccc1N2C	i	-2.9%	0.8
CCOc1cc(-c2nnc(-c3ccco3)o2)cc(OCC)c1OCC	i	-2.0%	-0.19
O=C1C(=C2CCCCC2)SC(=S)N1Cc1ccco1	i	-4.3%	-0.02
Cc1ccc(-c2nc(CS(=O)CC(=O)NCCCN3CC(C)CC(C)C3)c(C)o2)cc1 (stereo not given)	i	6.9%	-0.32
CCOC(=O)C1(C)NC(c2ccc(OC)c(OC)c2)C2C(=O)N(CC)C(=O)C21 (stereo not given)	i	0.6%	-0.61
Cn1c(=O)c2c(nc(CN3CCOCC3)n2CCc2ccccc2)n(C)c1=O	i	1.3%	0.23
COc1ccc(CNc2ccc(-c3ccccc3OC)nn2)cc1	i	-0.4%	·
CCCCn1c(SCc2cc(=O)n3ccsc3n2)nc2cc(C(=O)OC)ccc2c1=O	i	4.9%	-0.74
CCN1CCN(C(c2cccs2)C(C)NC(=O)c2cccnc2)CC1 (stereo not given)	i	1.0%	-1.23
COC(=O)CSc1nc(-c2ccccc2)c2c(c1C#N)CCCC2	i	0.5%	·
CC1=C(C(=O)Nc2ccccc2)C(c2ccco2)n2ncnc2N1 (stereo not given)	i	2.0%	1.51
COc1ccc2[nH]c(C)c(C(=O)CN3CC(C)OC(C)C3)c2c1 (stereo not given)	i	-5.7%	0.57
O=C(c1cccc(Cl)c1Cl)N1CCN(c2ccccn2)CC1	i	3.7%	-1.2
COCCn1nnnc1CN1CCC(NC(=O)c2ccc(Br)cc2)CC1	i	-8.7%	-0.26
CC(=O)C1=C(O)C(=O)N(CC(=O)O)C1c1ccccc1Cl (stereo not given)	i	4.4%	1.07
CCOc1ccc(/C=N/n2c(SC)nnc(C(C)(C)C)c2=O)cc1	i	-0.4%	·
Cc1c(Br)cc(C(=O)N2CCCC2)c(C)c1C	i	-8.0%	-0.13
CS(=O)(=O)c1cccc(C(=O)Oc2ccccc2)c1	i	-1.4%	-0.99
CC1CN(CC(=O)N2CCc3[nH]c4ccccc4c3C2)CC(C)O1 (stereo not given)	i	13.1%	-1.23
O=C(Oc1ccc(-c2nnco2)cc1)N(c1ccccc1)c1ccccc1	i	5.0%	-0.27
Cc1ccc(-c2cc(NC(=O)CCl)n(-c3ccccc3)n2)cc1	i	4.5%	·
Cc1cccc(NCCNc2cccc(C)c2)c1	i	-1.2%	·
Cc1nc(-c2ccccc2)cc(=O)[nH]1	i	0.1%	0.34
Cc1ccc(-c2nnn(CC(=O)N(CC(=O)NC3CCCC3)c3cnc4ccccc4c3)n2)o1	i	-7.3%	-0.16
C/C(=C(\C#N)C(=O)NCCCN1CCOCC1)N(C)C	i	3.2%	0.77
COCCSc1nnc(NC(=O)C(C)(C)C)s1	i	-0.2%	·
COc1ccc(CCN=CC2=C(O)CC(C)(C)CC2=O)cc1	i	0.8%	·
CC(C)c1nnc(NC(=O)CCC(=O)Nc2ccc(F)cc2)s1	i	-1.5%	0.35
COC(=O)c1ccc(COc2ccc3c(C)c(C)c(=O)oc3c2)o1	i	0.2%	1.51
CC(C)CC(C(=O)Nn1cnnc1)N1C(=O)c2ccccc2C1=O (stereo not given)	i	1.2%	-1.06
CCCC1(C)Nc2ccccc2-c2nc3ccccc3n21 (stereo not given)	i	4.6%	·
CCOC(=O)C1CCCN(C(=O)COC(=O)c2cc(=O)c3ccccc3o2)C1 (stereo not given)	i	4.3%	-1.07
CCCCCCCCNC(=O)C(CCC(=O)OCc1ccccc1)NC(C)=O (stereo not given)	i	-0.2%	·
Oc1ccccc1-c1nnc(SCCN2CCOCC2)n1Cc1ccccc1	i	-2.6%	-0.75

Continued, overlapping the part above by 7 compounds.
SMILES	MT1-MMP promoter	Hsc70	WNV protease inh
CC(C)c1nnc(NC(=O)CCC(=O)Nc2ccc(F)cc2)s1	i	-1.5%	0.35
COC(=O)c1ccc(COc2ccc3c(C)c(C)c(=O)oc3c2)o1	i	0.2%	1.51
CC(C)CC(C(=O)Nn1cnnc1)N1C(=O)c2ccccc2C1=O (stereo not given)	i	1.2%	-1.06
CCCC1(C)Nc2ccccc2-c2nc3ccccc3n21 (stereo not given)	i	4.6%	·
CCOC(=O)C1CCCN(C(=O)COC(=O)c2cc(=O)c3ccccc3o2)C1 (stereo not given)	i	4.3%	-1.07
CCCCCCCCNC(=O)C(CCC(=O)OCc1ccccc1)NC(C)=O (stereo not given)	i	-0.2%	·
Oc1ccccc1-c1nnc(SCCN2CCOCC2)n1Cc1ccccc1	i	-2.6%	-0.75
COc1cc2cc(C(=O)Nc3ccccc3)c(N)nc2cc1OC	i	4.2%	0.26
OC(COCc1cccs1)CN1CCN(c2ccccn2)CC1 (stereo not given)	i	0.8%	-1.02
CC(C)Oc1ccc(C(=O)NC2(C(F)(F)F)N=C3SCCN3C2=O)cc1 (stereo not given)	i	-1.3%	·
Cc1nn(C)cc1C1C2=C(CC(C)(C)CC2=O)OC2=C1C(=O)CC(C)(C)C2	i	-5.9%	-0.41
COc1cccc(C2CC(c3ccccc3Cl)Nc3nc(N)nn32)c1 (stereo not given)	i	-3.7%	-0.25
COc1ccc(C(=O)Nn2c(SCC(=O)c3ccccc3)nc3ccccc3c2=O)cc1	i	-1.2%	·
Cc1cc(Nc2ccc(Br)c(C)c2)n2nc(C)nc2n1	i	2.6%	0.49
COCCn1c(SCC(N)=O)nc2c(c1=O)SC(C)C2 (stereo not given)	i	1.0%	0.14
CC(=O)Nc1ccc(OCC(O)CN2CCN(c3cc(Cl)ccc3C)CC2)cc1 (stereo not given)	i	-4.8%	-0.02
CC(C)CCOP(=O)(c1ccc(N(C)C)cc1)C(O)c1ccccc1F (stereo not given)	i	2.0%	-0.51
c1coc(-c2nnc3sc(Cc4cccs4)nn23)c1	i	0.3%	1.12
CC(C)Cc1cc(C(=O)N2N=C(C(F)F)CC2(O)C(F)F)c2ccccc2n1 (stereo not given)	i	1.5%	·
COc1ccc(NC(C)=O)cc1NC(=O)CSc1nnc(-c2ccccc2)n1N	i	2.1%	-0.67
CCCc1cc(=O)n2[nH]c(NCc3ccccc3Cl)nc2n1	i	-6.8%	0.1
CC(C)(C)OC(=O)N[C@@H](Cc1ccccc1)c1nnc(SCC(=O)O)o1	i	3.0%	0.00793
CC(C)(C)N=Cc1cc(-c2ccccc2)sc1O	i	-4.7%	·
Cc1ccc(S(=O)(=O)N2CCN(C(=O)Cc3ccccc3)CC2)cc1	i	7.8%	·
COCCNS(=O)(=O)c1ccc(C2CNC(=O)C2)cc1 (stereo not given)	i	4.8%	-1.25
CC(C)(C)n1nnc(CCc2nnn(C(C)(C)C)n2)n1	i	-3.2%	0.42
O=C(c1cccn2c(=O)c3ccccc3nc12)N1CCN(c2ccccn2)CC1	i	4.0%	0.66

As entered above.
Under Hsc70, `CC(C)Cc1cc(C(=O)N2N=C(C(F)F)CC2(O)C(F)F)c2ccccc2n1` (stereo not given) is entered as 1.5%
Under WNV protease inh, `COCCNS(=O)(=O)c1ccc(C2CNC(=O)C2)cc1` (stereo not given) is entered as -1.25
Under Hsc70, `CC(C)(C)N=Cc1cc(-c2ccccc2)sc1O` is entered as -4.7%
Under WNV protease inh, `O=C(c1cccn2c(=O)c3ccccc3nc12)N1CCN(c2ccccn2)CC1` is entered as 0.66

Going on with the list.
SMILES	MT1-MMP promoter	Hsc70	WNV protease inh
Cc1ccc(N(C(=O)C2CCCC2)C2C=CS(=O)(=O)C2)cc1C (stereo not given)	i	-7.7%	-1.15
CCc1ccc2nc(N3CCN(C)CC3)c(C#N)cc2c1	i	1.1%	-0.89
CC(=O)N1N=C(c2ccc(Cl)cc2)OC1c1ccc(C(C)C)cc1 (stereo not given)	i	1.7%	·
O=C(Cn1cnc2ccccc21)NC(c1ccccc1)c1ccccc1	i	0.7%	·
COc1ccccc1CNC(=O)CCC(=O)Nc1nnc(C(C)C)s1	i	-5.2%	·
CC(C)Sc1nc2ccccc2c(=O)[nH]1	i	5.0%	·
Cc1cc(NC(=O)c2cc3nc(C4CC4)cc(C(F)(F)F)n3n2)no1	i	4.1%	-0.02
CC(C)OC(=O)CSc1n[nH]c(-c2cccnc2)n1	i	-7.7%	1.62
Cc1cccc(CSc2nnc(NC(=O)c3ccco3)s2)c1	i	0.7%	·
C=CCNC(=O)c1ccccc1NC(=O)c1ccccc1C	i	-2.5%	·
O=C1CCC(C(=O)Nc2ccc(OC(F)F)cc2)N1 (stereo not given)	i	5.2%	0.23
CCn1c(C(=O)N2CCc3ccccc3C2)cc2sccc21	i	-3.3%	0.43
Cc1nc(NC(=O)CSc2nc3cccnc3n2C2CCCCC2)sc1C	i	-9.1%	-0.71
Cc1cc(CN2CCN(CCC#N)CC2)c(O)c(C2(C)CCCCC2)c1	i	7.5%	0.49
Cc1csc(NC(=O)CCCSc2nc3ccccc3s2)n1	i	4.7%	-0.21
CC(=O)NC1CC2CCCC(C1)N2C(=O)Nc1ccc(Cl)c(C(F)(F)F)c1 (stereo not given)	i	0.3%	0.38
CCN(C(=O)c1coc(=O)c(Br)c1)c1ccc2c(c1)OCO2	i	13.6%	-0.13
CC(C)OCC(O)Cn1c(N2CCCC2)nc2c1c(=O)[nH]c(=O)n2C (stereo not given)	i	2.2%	-0.45
CC(=O)CC1(O)C(=O)N(Cc2ccccc2)c2ccccc21 (stereo not given)	i	0.8%	·
CCS(=O)(=O)N1CCN(c2nc(-c3ccccc3)cs2)CC1	i	-4.6%	0.17
c1ccc(Cc2nnc3sc(-c4ccccn4)nn23)cc1	i	-3.0%	-0.73
CCCc1cc(C(=O)NC2CCCCC2)no1	i	0.0%	0.83
COCCCn1c(SCC(=O)NCc2ccccc2)nc2ccccc2c1=O	i	4.9%	·
CC1CCN(C(=O)CSc2nncn2C)CC1	i	2.6%	·
Cc1ccc(Cl)cc1N1CCN(C(=O)COc2ccc(S(=O)(=O)NC(C)C)cc2)CC1	i	2.0%	-1.6
CCN1C(=O)c2ccc(C(=O)NCc3ccccc3)cc2C1=O	i	0.8%	2.29
CN(CCCCCNC(=O)/C=N/O)Cc1ccccc1	i	-5.3%	-0.22
Cc1ccc(NCc2nnc(SCC(=O)Nc3cccc(O)c3)n2CC2CCCO2)c(C)c1 (stereo not given)	i	-2.0%	-1.09
CCCN(CCC)C(=O)c1c(NC(=O)CC)sc2c1CCCCC2	i	1.1%	·
Cc1nc(CSc2nc3[nH]ncc3c(=O)n2-c2ccccc2)cs1	i	0.9%	-0.53
COc1ccc(S(=O)(=O)N2CCN(S(=O)(=O)c3ccc(C(F)(F)F)cc3)CC2)cc1C	i	2.6%	-2
COc1ccc(OC)c(N(CC(=O)N2CCC(C)CC2)S(=O)(=O)c2ccccc2)c1	i	6.0%	·
CC(=O)c1cccc(NC(=O)NCc2ccccn2)c1	i	-8.2%	-0.23
CCOC(=O)/C=C1\SCC(=O)N1CC(=O)Nc1ccccc1OC(F)F	i	-5.7%	-0.81
Cc1ccc(-n2nc(-c3ccc(N)cc3)cc2N)cc1	i	4.8%	-0.02
CCCCNC(=O)CSc1nc2ccc(N3CCOCC3)cc2c(=O)n1CCc1ccccc1	i	-0.6%	-0.08
O=C(NCCc1ccccc1)c1cccnc1N1CCCCCC1	i	6.8%	-0.29
Cc1ccc(Br)cc1S(=O)(=O)N1CCN(c2ccccc2)CC1	i	-5.1%	-0.31
Cn1c(C(=O)N2CCCC2)cc2c(=O)n(C)c3ccccc3c21	i	-0.9%	0.64
COC(=O)CC1C(=O)NCCN1C(=O)Nc1ccc(Cl)cc1 (stereo not given)	i	7.4%	·
COc1ccc(N2CCN(c3nc4c(c(=O)[nH]c(=O)n4C)n3Cc3ccccc3Cl)CC2)cc1	i	3.3%	-0.79

Retrieved one by one from the entries so far, 2 records:
SMILES	MT1-MMP promoter	Hsc70	WNV protease inh
Cn1c(C(=O)N2CCCC2)cc2c(=O)n(C)c3ccccc3c21	i	-0.9%	0.64
Cc1ccc(-n2nc(-c3ccc(N)cc3)cc2N)cc1	i	4.8%	-0.02
